Screening results from PubChem.
gsp antag: antagonizes gsp, the McCune-Albright syndrome mutation; actives 0.4% (n = 340,000); Potency, µM (series often up to 76.9 µM), for the others: at the top dose activity change, negative = inhibition, actives largely listed as inhibitors; AID 624288; gsp-mutant cells, cAMP HTRF, 30 min; control for the full effect not named in the record; active = falling curve of any shape with a large fitted effect; inconclusive = falling curve, mostly with a smaller effect; inactive = flat or rising curve; cell line not stated here;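 note: intracellular cAMP measured with PDE inhibitor Ro 20-1724 present during compound exposure; potency is the fitted concentration of half-maximal effect; % is set by controls: 0 for no effect and ±100 for the full control effect; nearly all actives have a fitted effect of over 65% in size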
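Cells, 2000/well, grown 16–24 h in DMEM 10% FBS with 0.5 mg/ml G418, then compounds plus […] (300 uM addition stock), 30 min at 37C. cAMP read by HTRF (cAMP-d2 and anti-cAMP antibody-K in lysis buffer) after 30 min RT.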
ClpP mod: qHTS Assay for Activators of ClpP. purified B. subtilis ClpP, FRET peptide cleavage, 20 min. actives 1.9% (n = 340,000). AID 651965, 2013. Potency, µM (doses to about 57.5 µM), for the others: top-dose activity change, negative = active. ATP-dependent Clp protease proteolytic subunit (Bacillus subtilis (strain 168)), P80244; active = well fitted falling curve with a large enough effect; inconclusive = small, poorly fitted or top-dose-only effect; inactive = no such curve, though single readings can be large or run the other way; note: potency is the fitted concentration of half-maximal effect; the source files actives as falling curves though it sought activators and does not explain the sign; nearly all actives have a fitted effect of over 65% in size; many hits overshoot -100%
Target sequence (P80244 whole entry, looked up): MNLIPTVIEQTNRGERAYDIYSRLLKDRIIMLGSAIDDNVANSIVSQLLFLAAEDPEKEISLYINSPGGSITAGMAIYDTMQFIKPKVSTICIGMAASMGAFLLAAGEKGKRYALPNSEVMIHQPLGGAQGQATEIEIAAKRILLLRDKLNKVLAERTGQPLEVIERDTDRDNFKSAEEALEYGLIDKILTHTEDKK
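Purified B. subtilis ClpP, 10 microg/mL final in Tris/HCl pH8 with KCl, BSA, glycerol and Tween-20, cleaved an Abz/nitrotyrosine-quenched decapeptide. Fluorescence (ex 320, em 430) was read at 0 and 20 min at room temperature. Delta was normalized to 5.8 microM ADEP and DMSO/no-enzyme controls.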
TRPV1 PAM: potentiators of human vanilloid receptor 1 (TRPV1); Q8NER1; TRPV1-expressing cells, Fluo-8 calcium influx, capsaicin EC20 potentiation; host cell line not named in the record; control for the full effect not named in the record; potentiation, % at 8.33 µM; actives 0.02% (n = 320,000); AID 540277; active means potentiation above 80%; inconclusive means 30% to 80%; inactive means below 30%; note: 0% is about no effect
Target sequence (Q8NER1 whole entry, looked up): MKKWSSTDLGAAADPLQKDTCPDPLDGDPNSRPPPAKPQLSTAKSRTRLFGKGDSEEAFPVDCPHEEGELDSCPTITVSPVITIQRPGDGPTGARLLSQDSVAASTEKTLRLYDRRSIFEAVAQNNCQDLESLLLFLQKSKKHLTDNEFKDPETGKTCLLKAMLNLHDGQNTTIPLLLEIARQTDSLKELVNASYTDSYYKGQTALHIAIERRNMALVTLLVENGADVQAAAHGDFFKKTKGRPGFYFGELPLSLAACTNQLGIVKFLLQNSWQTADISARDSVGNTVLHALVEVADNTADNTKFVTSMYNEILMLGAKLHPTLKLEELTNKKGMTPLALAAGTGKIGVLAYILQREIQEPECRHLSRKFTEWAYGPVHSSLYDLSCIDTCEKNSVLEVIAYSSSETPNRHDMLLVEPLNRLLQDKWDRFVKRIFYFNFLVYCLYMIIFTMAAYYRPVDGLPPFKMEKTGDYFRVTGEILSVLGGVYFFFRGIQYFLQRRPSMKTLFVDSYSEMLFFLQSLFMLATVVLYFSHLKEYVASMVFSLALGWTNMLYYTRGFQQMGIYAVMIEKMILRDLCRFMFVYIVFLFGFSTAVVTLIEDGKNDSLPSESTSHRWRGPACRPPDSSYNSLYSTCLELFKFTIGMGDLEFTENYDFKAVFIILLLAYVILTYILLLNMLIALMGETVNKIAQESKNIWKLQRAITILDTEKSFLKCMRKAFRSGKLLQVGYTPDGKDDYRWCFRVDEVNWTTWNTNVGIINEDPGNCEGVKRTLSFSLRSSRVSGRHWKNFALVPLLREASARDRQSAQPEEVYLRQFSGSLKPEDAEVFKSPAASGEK
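Cells expressing TRPV1 were dye-loaded with Fluo-8 and read kinetically: 10 s baseline, 3 min after compound (agonist portion), then 2 min after EC20 capsaicin (allosteric enhancer portion). Calcium-bound dye fluorescence at 480/520 nm.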
Menin MLL FP FL: inhibitors of human menin-MLL interaction, wild-type MLL peptide; Fluorescence polarization, fluorescein-MLL peptide displacement from menin; FP activity change, % at 61.4 µM; 290,000 tested, under 10 active; AID 1766; inconclusive = falling polarisation curve, or a change in total fluorescence; inactive = total fluorescence flat and polarisation flat or rising; no compound was filed as active; the % refers to the polarisation; negative = inhibition;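 note: % of control where 0% means no effect; inhibitors lower the polarisation; unlabelled MLL peptide was the positive control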
D2 potentiator: human D2 receptor positive allosteric modulation; actives 0.23% (n = 360,000); potentiation, % (test concentration not listed); AID 624464; P14416; DiscoveRx D2 beta-arrestin cells, luminescence, 90 min; 100% = 57 uM dopamine signal; active = potentiation of 50% or more; inconclusive = 30% to 50%; inactive = 30% or less;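 note: compound concentration not given in the record; tested on top of an EC20 dose of dopamine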
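PathHunter beta-arrestin assay in DiscoveRx D2 cells. Compounds were added with an EC20 of dopamine (50 nM final) for 90 min at 37 deg C. Luminescence was read 1 h after detection reagent, with 57 uM dopamine as the EC100 control.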
Sfp inh: Sfp phosphopantetheinyl transferase inhibition; Potency, µM, for inactives: max response, negative = inhibition, most hits filed as inhibitors; Biochemical Sfp PPTase activity, qHTS; actives 3.5% (n = 310,000); Q9F4F7; active = well fitted inhibition curve with a large enough effect; inconclusive = small, poorly fitted or top-dose-only effect, or another doubt; inactive = no such curve, though single readings can be large or run the other way;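 note: the enzyme is Sfp with the accession as filed and its product quenches rhodamine fluorescence; potency is the fitted concentration of half-maximal effect; 0% = enzyme reaction without inhibitor and -100% = no enzyme wells; top concentration of the series not given in the record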
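Fluorescence-quenching assay: 15 nM Sfp-PPTase preincubated 15 min at room temperature with compound, then 5 uM rhodamine-CoA and 12.5 uM BHQ-2-labelled YbbR peptide added. Fluorescence (ex 525/em 598 nm) read at start and after 30 min; difference gives rate.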
gsp ag: gsp mutant agonism | gsp mutant cells, cAMP HTRF, 30 min; control for the full effect not named in the record | Potency, µM (top dose mostly 76.9 µM), for the others: at the highest dose activation (cAMP increase), hits mostly activators | actives 0.13% (n = 340,000); active = well fitted activation curve with a large enough effect; inconclusive = small, poorly fitted or top-dose-only effect, or another doubt; inactive = no such curve, though single readings can be large or run the other way; cell line not stated here;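 note: phosphodiesterase inhibitor Ro 20-1724 added with compounds to block cAMP breakdown; potency is the fitted concentration of half-maximal effect; nearly all actives have a fitted effect of over 60% in size; about a fifth of the inactives were tested at one dose only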
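Cells stably selected in G418 were plated at 2000/well, grown 16-24 hr, then given compounds in DMSO with the PDE inhibitor […] (300 uM solution added) for 30 min at 37C; cAMP was read by HTRF.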
* marks the source's active call; other numbers are inactive results; ? = inconclusive; . = no result given; [ ] = dose if it differs, or a comment. Compounds as they come; any-hit rate near 5.1%.

SMILES	gsp antag	ClpP mod	TRPV1 PAM	Menin MLL FP FL	D2 potentiator	Sfp inh	gsp ag
COc1ccc(/C=C2\SC(=O)N(CC(=O)NNC(=O)c3ccccc3O)C2=O)cc1OC	-2%	2.1%	-2	0.8	15	?	0%
COC(=O)c1cc2c(C)c(C)c3ccccn3c-2c1C(=O)OC	8%	1.8%	-5	?	-16	-6%	?
O=C(Cc1cccs1)N/N=C/C=C\c1ccccc1[N+](=O)[O-]	-3%	.	10	-1.5	-11	0%	11%[15.4 µM]
Cc1noc(C)c1COC(=O)c1cc(S(=O)(=O)N2CCOCC2)ccc1F	-3%	0.0%	-4	.	6	.	-20%
COc1cc2c(cc1OC)CN(CC(=O)Nc1ccccc1C(=O)NCc1ccccc1)CC2	?	.	-1	-1.9	2	3%	11%
Cc1cc(C(=O)N/N=C/c2ccc3c(c2)OCO3)c(C)n1-c1ccc(F)cc1	14%	-0.3%	-17	3.1	-12	5%	-1%[15.4 µM]
CC(C)n1nc(CC(=O)O)c2ccccc2c1=O	-13%	-1.0%	3	-0.4	-1	4%	4%[15.4 µM]
COc1cc(OC)cc(-n2nc(C(=O)N3CC(C)CC(C)C3)c3ccccc3c2=O)c1 (stereo unspecified)	-12%	0.3%	3	-1.4	-9	7%	-9%
Cc1ccc(S(=O)(=O)CCC(=O)OCc2ccc(Cl)c(Cl)c2)cc1	10%	-2.1%	-1	2.7	-5	-10%	-33%[inhibitor]
O=C(CSc1ccc2ccccc2c1)NCCc1ccc(O)c(O)c1	-11%	.	-5	1.3	?	25µM*	4%[15.4 µM]
COC(=O)c1cc2ccsc2n1Cc1nc(-c2ccc(Cl)cc2)oc1C	-1%	-5.3%	4	-0.2	-1	-18%	0%
COc1ccccc1C(=O)Nc1ccc(NC(=O)c2ccco2)c(C)c1	-12%	1.8%	25	-0.4	-16	8%	2%
CCCNC(=O)c1c(N)n(-c2ccc3c(c2)OCO3)c2nc3ccccc3nc12	0%	-12%	-5	5.1	1	9%	0%
Cc1cccc[n+]1CC(=O)c1ccccc1	9%	0.6%	-3	0.7	-4	-1%	3%[15.4 µM]
O=C(Nc1ccccc1)NN(C(=O)CCl)c1ccccc1	-10%	.	17	-0.5	2	8%	-29%
O=C(Nc1ccc(N2CCOCC2)c(Cl)c1)c1cc(F)c(F)cc1Cl	-6%	-0.4%	-13	3.0	-11	15%	-15%
Cc1ccc(CNc2ccc3c(c2)ncn3C(C)C)cc1	-8%	3.6%	-12	1.2	-11	-9%	-14%
Cc1ccc(C(C)NC(=S)NCc2ccc(F)cc2)c(C)c1 (stereo unspecified)	-12%	1.0%	-4	-1.6	-9	21%	-26%
NS(=O)(=O)c1ccc(NC(=S)NC(=O)c2cccs2)cc1	1%	1.0%	-9	2.4	-9	?	14%
CCc1ccc(S(=O)(=O)NC(CC(=O)O)c2ccccc2)cc1 (stereo unspecified)	-7%	1.1%	-3	6.0	-5	8%	-26%
C=CCOc1cccc(C(=O)N2CCCC(Nc3ccc(F)cc3)C2)c1 (stereo unspecified)	4%	-3.7%	.	.	3	.	19%[15.4 µM]
Nc1nc2c([N+](=O)[O-])cccc2s1	4%	-2.0%	-1	-2.7	-30	21%	61%
CC(C)(C)OC(=O)N(CCc1ccccc1)Cc1cccc(OCc2cccc(NC(=O)C3CC3)c2)c1	-10%	-1.0%	.	.	4	.	.
O=[N+]([O-])c1cccc(C=NN2CCCCCC2)c1	-11%	-0.7%	.	.	-6	.	8%[15.4 µM]
CCOC(=O)C1CCN(CCC(=O)Nc2ccccc2)CC1	12%	-0.5%	2	-0.6	-6	19%	?
NNc1nc2cccnc2n(CCNc2ncc(C(F)(F)F)cc2Cl)c1=O	-7%	.	4	8.6	-9	?	27%[15.4 µM]
O=C(COC(=O)/C=C/c1ccccc1)NCc1ccccc1Cl	4%	.	-23	-5.4	-9	19%	-15%
CCOC(=O)C1CCN(C(=O)CN(c2cccc(OC)c2)S(=O)(=O)c2ccccc2)CC1	-4%	1.5%	-4	0.7	-5	17%	15%
Cc1nc(CN2CCOCC2)cc(=O)[nH]1	17%	1.7%	1	2.5	7	10%	-29%
COc1cccc(C(=O)N/N=C2\SCC(=O)N2Cc2ccc3c(c2)OCO3)c1	-7%	-0.8%	5	3.9	-9	-3%	-15%
COC(=O)C(C)NC(=O)c1ccc(C(C)(C)C)cc1 (stereo unspecified)	-9%	3.9%	-24	0.2	15	5%	-7%
COc1cccc(NC(=O)Cn2cnc3c(oc4nc5c(cc43)CCCC5)c2=O)c1	8%	-5.8%	9	.	-7	10%	?
CC(=O)Nc1ccc(NC(=O)CSc2nnc(-c3cccnc3)o2)cc1	15%	3.1%	-4	.	-4	.	5%[15.4 µM]
Cc1c(NC(=O)CS(=O)(=O)c2ccccc2)c(=O)n(-c2ccccc2)n1C	15%	0.5%	-18	1.6	8	13%	-7%[15.4 µM]
Cc1cc2ncn(CCOc3ccccc3C#N)c2cc1C	-3%	-4.6%	9	0.1	-6	-9%	?
O=C(CN1CCOc2ccccc21)NCc1ccccc1	4%	3.1%	14	7.0	1	34%[activator]	-40%[inhibitor]
CCCCn1c(=O)[nH]c(=O)c2c1nc(Cn1ncc(Cl)c(Cl)c1=O)n2CCC	15%	.	?	10	-14	8%	35%[15.4 µM]
COC(=O)Nc1ccc2ncn(C)c(=O)c2c1	1%	-22%	?	2.6	-3	22%	20%
COc1cccc(C(=O)N(CN2CCCC2=O)c2cccc(Cl)c2)c1	-10%	5.8%	2	-1.0	-5	-7%	-6%
Cc1ccc(CNC(=O)CCC2CCCN(Cc3cc4ccccc4o3)C2)o1 (stereo unspecified)	4%	-6.7%	-3	4.7	-18	-6%	-1%
Cc1ccc(/C([O-])=C(/C(=S)NCc2ccco2)[n+]2ccccc2)cc1	.	.	0	1.3	.	?	.
CCOc1ccc(CCNC(=O)Cn2c(=O)c3cccn3c3cccnc32)cc1	-1%	-20%	-14	10	-6	-9%	-17%
COc1cc(S(=O)(=O)NC2CCCC2)ccc1F	7%	-2.1%	-9	1.3	-8	13%	11%
CC(C)(C)c1ccc(C(=O)NCc2ccc(Cl)cc2)cc1	4%	-1.2%	-12	-5.9	-9	13%	-17%
Cc1ccccc1NC(=O)OCc1ccccc1	0%	.	0	1.0	-2	25%	-39%[inhibitor]
COCCN1Cc2cccc(C(=O)Nc3ccc(C)cc3)c2C1=O	-22%	.	0	2.6	0	8%	2%
Cc1ccc(NC(=O)N2CCCC(C(=O)O)C2)cc1 (stereo unspecified)	11%	-1.6%	1	-0.1	4	20%	15%
O=C1CCc2cc(S(=O)(=O)NC(Cc3ccccc3)C(=O)NC3CCCC3)ccc2N1 (stereo unspecified)	5%	4.3%	-22	2.3	-6	25%	20%
C=CCSc1nnc(-c2cc(C(C)(C)C)nn2Cc2ccc(F)cc2)n1C	0%	.	-3	1.9	-4	20%	3%[15.4 µM]
COc1ccc(OC)c(NC(=O)C2CCCN(S(=O)(=O)c3ccc(-n4cnnn4)cc3)C2)c1 (stereo unspecified)	-30%	.	-10	8.4	-5	-4%	1%
The listing continues.
SMILES	gsp antag	ClpP mod	TRPV1 PAM	Menin MLL FP FL	D2 potentiator	Sfp inh	gsp ag
CN(C)c1ccc(CN2CCCCCC2)cc1	-7%	-1.9%	10	5.5	-19	-14%	3%
CC(C)CC(NC(=O)C1CCC(C)CC1)C(=O)Nc1ccccn1 (stereo unspecified)	3%	-5.3%	-7	-0.1	-15	-5%	?
O=c1[nH]c(SCc2ccccc2)nc2ccsc12	-18%	.	15	1.9	1	6%	0%[15.4 µM]
O=C(CCc1nc2ccccc2c(=O)[nH]1)NCCN1C(=O)S/C(=C\c2ccc(OC(F)F)cc2)C1=O	-16%	15%	.	.	-4	.	-13%
CCC[C@@H](CN[C@@H](CNC)[C@H](C)CC)NCC1CCC(C(C)(C)C)CC1 (stereo partly specified)	16%	-0.9%	20	-5.2	-6	15%	.
CC1(C)Cc2c(sc3nc(SCC(=O)O)nc(N)c23)CO1	12%	0.7%	-34	-4.3	-7	25%	-1%[15.4 µM]
Cc1ccccc1-c1n[nH]nc1C1=CC(=O)C[C@H](c2ccc(F)cc2)C1	.	-1.2%	.	.	-3	.	-2%
S=c1[nH]nc(-c2ccc(Cl)cc2Cl)n1-c1ccc(Cl)cc1	-23%	.	8	-0.9	-5	-1%	2%
C=C(C)Cn1c(N2CC(C)CC(C)C2)nc2c1c(=O)[nH]c(=O)n2C (stereo unspecified)	0%	-0.1%	-10	0.6	-6	4%	?
CC(C)(C)c1ccc(C(=O)NCC(=O)O)cc1	-1%	.	-9	1.3	0	10%	-3%[15.4 µM]
NNC(=O)C1CCN(S(=O)(=O)c2ccc(Cl)cc2)CC1	-5%	.	.	.	-4	.	-2%
CSc1ncccc1C(=O)OCC(=O)NC(C)C	5%	.	?	-1.1	-4	19%	-21%
COCCN(C(=O)c1snc(C(N)=O)c1N)C(C(=O)NC1CCCCC1)c1cc(OC)c(OC)c(OC)c1 (stereo unspecified)	8%	-24%	3	-3.1	-12	6%	0%
COc1ccc(-c2nnn(CCc3nn[nH]n3)n2)cc1OC	7%	-0.5%	5	-0.3	-4	-4%	0%
CCOC(=O)c1c(NC(=O)CSc2nc3nc(C)cc(C)n3n2)sc(CC)c1C	4%	.	13	2.8	-1	13%	-1%
CCOC(=O)C1(CC2CCCCO2)CCN(Cc2cccnc2)CC1 (stereo unspecified)	1%	.	9	-6.0	-9	-6%	30%[15.4 µM]
NS(=O)(=O)c1ccc(NC(=O)NC2CCCCC2)cc1	-4%	0.2%	5	-7.6	1	-6%	?
COc1cc2c(C#N)c(N3CCc4ccccc4C3)nc(N)c2c(N)n1	-7%	28µM*	-35	-18	4	35µM*	9%

In the list so far, two contain a cyano group.
SMILES	gsp antag	ClpP mod	TRPV1 PAM	Menin MLL FP FL	D2 potentiator	Sfp inh	gsp ag
Cc1cc2ncn(CCOc3ccccc3C#N)c2cc1C	-3%	-4.6%	9	0.1	-6	-9%	?
COc1cc2c(C#N)c(N3CCc4ccccc4C3)nc(N)c2c(N)n1	-7%	28µM*	-35	-18	4	35µM*	9%
